Compound activity from PubChem.
MLL AF4-AF9 inh – inhibitors of human MLL-AF4/AF9 interaction | P42568 | AlphaScreen, biotin-AF4 peptide binding to FLAG-AF9 | inhibition, % at 10 µM | actives 0.47% (n = 350,000) | AID 651704;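 active = every replicate reaching a set inhibition limit, whatever the replicate mean, cut at about 25% in these data; inconclusive = mean inhibition reaches that limit but some replicates miss it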;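 note: 0% = plate neutral control median and 100% = total signal loss; the record names both 10 and 1 µM as test concentration; the first replicate is given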
Target sequence (P42568 whole entry, looked up): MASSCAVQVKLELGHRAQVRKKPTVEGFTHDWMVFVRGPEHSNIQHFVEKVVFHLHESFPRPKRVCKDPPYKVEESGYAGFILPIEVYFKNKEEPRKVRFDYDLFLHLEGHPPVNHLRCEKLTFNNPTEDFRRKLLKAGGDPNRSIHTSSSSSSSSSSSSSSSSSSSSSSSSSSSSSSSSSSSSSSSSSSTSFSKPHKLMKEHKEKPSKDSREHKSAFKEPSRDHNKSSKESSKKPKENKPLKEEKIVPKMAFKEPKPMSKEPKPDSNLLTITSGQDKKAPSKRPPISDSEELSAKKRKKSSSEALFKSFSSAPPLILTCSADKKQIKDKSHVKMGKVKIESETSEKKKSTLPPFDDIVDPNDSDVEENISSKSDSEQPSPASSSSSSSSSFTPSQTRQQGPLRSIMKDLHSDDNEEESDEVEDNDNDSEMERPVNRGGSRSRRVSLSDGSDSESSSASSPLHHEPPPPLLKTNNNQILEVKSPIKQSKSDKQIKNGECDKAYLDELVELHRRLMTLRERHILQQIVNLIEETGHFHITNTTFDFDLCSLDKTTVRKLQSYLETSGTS
FGF22 binding – FGF22 (human) thermal shift binding | recombinant FGF22 thermal shift, SYPRO orange fluorescence; percent of sucrose octasulfate shift, DMSO zero | calls only at 9.99 µM | actives 1.5% (n = 340,000);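 active = melting point raised past a set limit in the mean and every replicate; inconclusive = no clear call; three in four hits are not shown here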
Vif A3G – inhibitors of Vif binding to APOBEC3G peptide, primary screen, biochemical, TR-FRET, GST-Vif 1-94, biotin-A3G peptide, dose response retest (AID 1117319) | TR-FRET GST-Vif / biotin-A3G peptide binding; higher % means a stronger effect; test concentration not given here; strong numbers were not always called active | inhibition, %; hits with a dose series show IC50 in µM | actives 0.57% (n = 260,000);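 active = above the screen mean plus three standard deviations and confirmed in dose response; inconclusive = results disagree or hit not tested in dose response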;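 note: Vif residues 1-94 fused to GST binding biotinylated APOBEC3G peptide 110-148; 0% = full assay without inhibitor and 100% = GST in place of GST-Vif; retest series ran down from 100 µM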
ALR inh – blocks human ALR sulfhydryl oxidase activity; purified ALR, DTT oxidation, H2O2 HRP-luminol luminescence; P55789; actives 3.8% (n = 290,000); inhibition, % (test concentration not listed);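 active = mean and each replicate at 75% or more; inconclusive = only one of the two met; inactive = neither met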;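 note: stock transfer was 7.5 nL into about 7.5 µL; 0% = neutral wells and 100% = wells with inactivated enzyme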
rRNA inh HTS – inhibitors of bacterial rRNA selective over humanized ribosomes. E. coli WT GFP vs humanized-ribosome RFP mutants, fluorescence, 24 h; stronger effect = lower value; DMSO median 0, no signal -100. AID 720706. GFP signal change (wild-type ribosome), % (concentration not given with the values). actives 1.6% (n = 350,000);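 active = significant combined selectivity score with lowered wild-type GFP, culture density cut under 30%, mutant RFP and density less affected; inactive = any of these conditions unmet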; note: one replicate is shown; some compounds called inactive have numbers as strong as hits
Ecoli growth – inhibitors of Escherichia coli growth | OD600 absorbance (no concentration beside the values) | actives 0.21% (n = 330,000) | OD600, 23 h; stronger effect = lower value;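 active = OD600 absorbance below the run mean of sample wells minus 3.6 SD, in any replicate, cut at about 0.56 in these data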;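 note: stock transfer was 300 nL into about 60 µL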
HNF4A DNA FP – change in binding of human HNF4 alpha to DNA. HNF4a-FITC DNA binding, fluorescence polarization, 1 h. activity change, % at 10 µM. actives 0.3% (n = 360,000); in the data active = activity change above about 30%, passing the limit was not always enough;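 note: controls were the assay level and a saturating level of protein; the project sought stronger binding though the title names inhibitors; some compounds called inactive have numbers as strong as hits; positive values seem to mean higher polarization but the record does not say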
Target sequence (P41235 whole entry, looked up): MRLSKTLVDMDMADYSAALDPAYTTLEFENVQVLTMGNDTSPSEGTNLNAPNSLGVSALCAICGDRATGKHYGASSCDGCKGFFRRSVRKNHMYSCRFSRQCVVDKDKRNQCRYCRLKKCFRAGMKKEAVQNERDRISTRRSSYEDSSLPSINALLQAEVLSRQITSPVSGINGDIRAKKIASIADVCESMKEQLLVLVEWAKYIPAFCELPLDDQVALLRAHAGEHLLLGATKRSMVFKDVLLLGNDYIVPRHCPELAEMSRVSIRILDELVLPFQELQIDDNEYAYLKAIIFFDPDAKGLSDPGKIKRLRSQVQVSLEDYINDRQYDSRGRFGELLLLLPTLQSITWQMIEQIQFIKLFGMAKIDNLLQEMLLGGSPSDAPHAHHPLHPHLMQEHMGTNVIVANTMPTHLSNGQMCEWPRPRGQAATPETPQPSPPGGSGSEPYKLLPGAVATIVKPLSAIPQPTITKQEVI
rRNA inh HTS OD600 – also measured in rRNA inh HTS; calls as there; OD600 change, %; measured here: OD600 growth;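 optical density of the mix in the first replicate; 0 = DMSO median and -100 = no signal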
rRNA inh HTS RFP – second read-out of rRNA inh HTS, no call of its own (marks repeat the call); RFP signal change, %; measured here: RFP humanized mutant strains;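 first replicate; 0 = DMSO median and -100 = no signal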
Active calls of the source: *.

How did Cc1ccc(S(=O)(=O)Nc2ccc3c(c2)C(=O)N([C@H](C)CO)C[C@H](C)[C@@H](CN(C)C)OCCCC[C@@H](C)O3)cc1 do in these assays?
MLL AF4-AF9 inh: -4.4; FGF22 binding: inactive; rRNA inh HTS: 0.3; rRNA inh HTS OD600: -1.2; rRNA inh HTS RFP: -1.0

How did CC(=O)Nc1ccc(S(=O)(=O)NCCC(=O)OCC(=O)c2ccc(F)c(F)c2)cc1 do in these assays?
MLL AF4-AF9 inh: -0.3; FGF22 binding: inactive; ALR inh: -8.5; rRNA inh HTS: 9.6; Ecoli growth: 0.654; HNF4A DNA FP: 2.3; rRNA inh HTS OD600: 15.5; rRNA inh HTS RFP: 1.2

What do the screens show for `CC1C(c2ccccc2)N(C)C(c2ccccc2)C(C)C1(O)C#Cc1ccccc1` (stereo not drawn)?
MLL AF4-AF9 inh: inconclusive; FGF22 binding: inactive; Vif A3G: -8.7%; ALR inh: 0.1; rRNA inh HTS: 7.5; Ecoli growth: 0.686; HNF4A DNA FP: 2.3; rRNA inh HTS OD600: 4.9; rRNA inh HTS RFP: 1.2

Results for C[C@H]1CN([C@@H](C)CO)C(=O)c2cc(NS(=O)(=O)c3cccs3)ccc2O[C@@H]1CN(C)S(=O)(=O)c1ccc(Cl)cc1 ?
MLL AF4-AF9 inh: -1.9; FGF22 binding: inactive; rRNA inh HTS: 1.1; rRNA inh HTS OD600: -14.6; rRNA inh HTS RFP: 1.9

How did CSc1nnc(-c2cc(Br)ccc2N=Cc2c(C)[nH]n(-c3ccccc3)c2=O)c(=O)[nH]1 do in these assays?
MLL AF4-AF9 inh: -1.7; FGF22 binding: inactive; Vif A3G: 17.2%; ALR inh: 47.9; rRNA inh HTS: -24.9*; Ecoli growth: 0.648; HNF4A DNA FP: -1.0; rRNA inh HTS OD600: -15.8*; rRNA inh HTS RFP: -3.6*

Results for CNC(=O)CN(c1ccc(F)cc1)S(=O)(=O)c1cc(C)ccc1OC ?
Vif A3G: 18.8%; ALR inh: -2.8; Ecoli growth: 0.696; HNF4A DNA FP: -4.4

How did CC(C)NC(=O)NCCCCCCS(C)=O (stereo not drawn) do in these assays?
MLL AF4-AF9 inh: -1.0; FGF22 binding: inactive; ALR inh: -5.8; rRNA inh HTS: 13.8; Ecoli growth: 0.806; HNF4A DNA FP: 0.8; rRNA inh HTS OD600: 8.0; rRNA inh HTS RFP: 23.0

What do the screens show for `CCOc1cc(N2CCOCC2)c(OCC)cc1NC(=O)c1ccc(S(C)(=O)=O)cc1`?
MLL AF4-AF9 inh: -2.2; Vif A3G: -0.4%; ALR inh: -22.9; rRNA inh HTS: 2.3; Ecoli growth: 0.682; HNF4A DNA FP: 1.8; rRNA inh HTS OD600: 0.5; rRNA inh HTS RFP: 3.3

Results for C[C@H]1CN([C@@H](C)CO)C(=O)c2cccc(NC(=O)c3cnccn3)c2O[C@@H]1CN(C)Cc1ccc(Cl)c(Cl)c1 ?
MLL AF4-AF9 inh: 2.3; FGF22 binding: inactive; rRNA inh HTS: -10.6; rRNA inh HTS OD600: -8.1; rRNA inh HTS RFP: -0.8

What do the screens show for `CSCCC(NC(=O)COc1ccccc1)C(=O)N(C)CC(=O)Nc1c(C)cccc1C` (stereo not drawn)?
MLL AF4-AF9 inh: 1.3; FGF22 binding: inactive; Vif A3G: 4.0%; ALR inh: -13.3; rRNA inh HTS: 10.4; Ecoli growth: 0.684; HNF4A DNA FP: 1.2; rRNA inh HTS OD600: 9.7; rRNA inh HTS RFP: 1.2

Results for COc1cc2ccccc2cc1C(=O)Nc1nnc(-c2ccncc2)o1 ?
MLL AF4-AF9 inh: -2.6; FGF22 binding: inactive; Vif A3G: 7.3%; ALR inh: -0.4; rRNA inh HTS: 13.2; Ecoli growth: 0.676; HNF4A DNA FP: -1.8; rRNA inh HTS OD600: 13.2; rRNA inh HTS RFP: 2.9

Results for O=C(N/N=C/C(Cl)=C/c1ccccc1)c1cnccn1 ?
Vif A3G: 1.5%; ALR inh: -5.1; HNF4A DNA FP: -1.1

How did CCC(CC)C(=O)Nc1ccc(Sc2ccc([N+](=O)[O-])cc2)cc1 do in these assays?
MLL AF4-AF9 inh: 8.5; FGF22 binding: inactive; Vif A3G: 3.9%; ALR inh: -2.2; rRNA inh HTS: 2.6; Ecoli growth: 0.741; HNF4A DNA FP: 1.0; rRNA inh HTS OD600: 1.4; rRNA inh HTS RFP: 0.9

Results for Cc1cc(NC(=O)C(C)SCC(=O)N(C)Cc2c(F)cccc2Cl)no1 (stereo not drawn) ?
MLL AF4-AF9 inh: -2.1; FGF22 binding: inactive; Vif A3G: 3.1%; ALR inh: -1.5; rRNA inh HTS: -2.4; Ecoli growth: 0.69; HNF4A DNA FP: 1.9; rRNA inh HTS OD600: -10.5; rRNA inh HTS RFP: -2.2

Results for O=C(NCC[C@@H]1CC[C@@H](NC(=O)C2CCC2)[C@@H](CO)O1)c1cnccn1 ?
MLL AF4-AF9 inh: -14.9; FGF22 binding: inactive; rRNA inh HTS: -1.5; rRNA inh HTS OD600: -2.9; rRNA inh HTS RFP: 1.1

Results for CCN(CC)CCN(C(=O)c1ccc2c(c1)OCCO2)c1nc2cc(C)cc(C)c2s1 ?
MLL AF4-AF9 inh: 7.4; FGF22 binding: inactive; ALR inh: 17.6; rRNA inh HTS: -20.8*; Ecoli growth: 0.655; HNF4A DNA FP: 0.9; rRNA inh HTS OD600: -11.2*; rRNA inh HTS RFP: -0.2*

What do the screens show for `Cn1cccc1C(=O)NC(=O)COC(=O)CC12CC3CC(CC(Br)(C3)C1)C2`?
Vif A3G: 58.5µM*; Ecoli growth: 0.81; HNF4A DNA FP: 1.1

What do the screens show for `Cc1cccc2cc(CN(CC3CCCO3)C(=O)c3ccco3)c(=O)[nH]c12` (stereo not drawn)?
Vif A3G: 5.9%; ALR inh: 0.5; Ecoli growth: 0.734; HNF4A DNA FP: -0.1

What do the screens show for `CCC(=O)Nc1ccc2c(c1)C(=O)N(C)C[C@@H](OC)[C@@H](C)CN(C(=O)CC)[C@H](C)CO2`?
MLL AF4-AF9 inh: 2.7; FGF22 binding: inactive; rRNA inh HTS: -0.3; rRNA inh HTS OD600: -0.5; rRNA inh HTS RFP: -1.7

What do the screens show for `O=C(Nc1ccc(Cl)cn1)c1cc2c(s1)-c1ccccc1OC2`?
MLL AF4-AF9 inh: -2.1; FGF22 binding: inactive; Vif A3G: -6.8%; ALR inh: -2.8; rRNA inh HTS: -22.4*; Ecoli growth: 0.699; HNF4A DNA FP: 4.0; rRNA inh HTS OD600: -6.0*; rRNA inh HTS RFP: 3.5*

How did Cc1ccc(NC(=O)COC(=O)CN2CSCC2=O)cc1C do in these assays?
Vif A3G: -4.0%; ALR inh: 98.3*; Ecoli growth: 0.708; HNF4A DNA FP: 3.9

Results for COc1ccc(N(CC(=O)NC2CCCCCC2)S(=O)(=O)c2ccccc2)cc1Cl ?
MLL AF4-AF9 inh: 1.1; FGF22 binding: inactive; Vif A3G: 7.2%; ALR inh: -4.1; rRNA inh HTS: 21.6; Ecoli growth: 0.73; HNF4A DNA FP: -2.3; rRNA inh HTS OD600: 13.5; rRNA inh HTS RFP: -1.6

How did COc1cccc(CNC(=O)c2cccnc2Sc2ccc(Cl)cc2)c1 do in these assays?
MLL AF4-AF9 inh: -2.7; FGF22 binding: inactive; ALR inh: -9.8; rRNA inh HTS: 15.2; Ecoli growth: 0.708; HNF4A DNA FP: -1.9; rRNA inh HTS OD600: 15.7; rRNA inh HTS RFP: -0.6

What do the screens show for `c1ccc(C(c2nnnn2Cc2ccco2)N2CCN(C3CCCC3)CC2)cc1` (stereo not drawn)?
Vif A3G: 16.6%; ALR inh: -3.4; Ecoli growth: 0.72; HNF4A DNA FP: 0.3

How did Cc1ccc(S(=O)(=O)CCc2nnc(N)s2)cc1C do in these assays?
Vif A3G: 13.9%; ALR inh: -5.0; Ecoli growth: 0.693; HNF4A DNA FP: -1.7

What do the screens show for `COc1cccc(NC(=O)CN(C)C(C)C(=O)N2CCCCC2)c1` (stereo not drawn)?
MLL AF4-AF9 inh: -1.3; FGF22 binding: inactive; Vif A3G: 11.1%; ALR inh: -8.0; rRNA inh HTS: 8.9; Ecoli growth: 0.719; HNF4A DNA FP: -0.7; rRNA inh HTS OD600: 14.0; rRNA inh HTS RFP: 2.0

What do the screens show for `Cc1sc2ncnc(N3CCCC(C)C3)c2c1C` (stereo not drawn)?
MLL AF4-AF9 inh: 0.2; FGF22 binding: inactive; ALR inh: -0.6; rRNA inh HTS: -28.0*; Ecoli growth: 0.68; HNF4A DNA FP: 2.4; rRNA inh HTS OD600: -8.4*; rRNA inh HTS RFP: -9.2*

What do the screens show for `CN(C)C(=O)C[C@H]1C[C@@H]2c3cc(NS(=O)(=O)c4ccccc4)ccc3O[C@@H]2[C@@H](CO)O1`?
MLL AF4-AF9 inh: -6.6; FGF22 binding: inactive; rRNA inh HTS: -1.5; rRNA inh HTS OD600: -2.3; rRNA inh HTS RFP: 0.3

How did CC1Cc2ccccc2N1S(=O)(=O)c1cccc(C(=O)NCC(c2ccco2)N2CCCC2)c1 (stereo not drawn) do in these assays?
MLL AF4-AF9 inh: 2.8; FGF22 binding: inactive; Vif A3G: -6.0%; rRNA inh HTS: -9.0; Ecoli growth: 0.676; HNF4A DNA FP: 6.8; rRNA inh HTS OD600: -5.2; rRNA inh HTS RFP: -0.4

Results for CCOc1ccc(CCNC(=O)c2nnn(CC(=O)Nc3ccccc3C)c2N)cc1OCC ?
MLL AF4-AF9 inh: 1.7; FGF22 binding: inactive; Vif A3G: 5.5%; ALR inh: 0.2; rRNA inh HTS: 1.1; Ecoli growth: 0.63; HNF4A DNA FP: -0.3; rRNA inh HTS OD600: 6.1; rRNA inh HTS RFP: -1.3

What do the screens show for `CCOc1ccccc1C1C(C#N)=C(N)N(N(C)C)C2=C1C(=O)CCC2` (stereo not drawn)?
MLL AF4-AF9 inh: 4.2; FGF22 binding: inactive; Vif A3G: 4.0%; ALR inh: -7.2; rRNA inh HTS: 6.9; Ecoli growth: 0.672; HNF4A DNA FP: 2.3; rRNA inh HTS OD600: 9.5; rRNA inh HTS RFP: 1.9

What do the screens show for `CCC(CC)c1nnc(NC(=O)c2ccc(N3CCCC3=O)cc2)s1`?
Vif A3G: 2.1%; ALR inh: 1.3; Ecoli growth: 0.66; HNF4A DNA FP: 2.1

Results for Cc1cccc(OCC(=O)Nc2ccc(N3CCN(C(=O)c4ccccc4)CC3)cc2)c1C ?
MLL AF4-AF9 inh: -2.2; FGF22 binding: inactive; Vif A3G: -5.5%; ALR inh: -1.4; rRNA inh HTS: 0.6; Ecoli growth: 0.722; HNF4A DNA FP: -0.7; rRNA inh HTS OD600: 9.9; rRNA inh HTS RFP: -2.0

Ordered by SMILES length (descending): some entries from above.
Results for Cc1cccc(OCC(=O)Nc2ccc(N3CCN(C(=O)c4ccccc4)CC3)cc2)c1C ?
MLL AF4-AF9 inh: -2.2; FGF22 binding: inactive; Vif A3G: -5.5%; ALR inh: -1.4; rRNA inh HTS: 0.6; Ecoli growth: 0.722; HNF4A DNA FP: -0.7; rRNA inh HTS OD600: 9.9; rRNA inh HTS RFP: -2.0

Results for CCN(CC)CCN(C(=O)c1ccc2c(c1)OCCO2)c1nc2cc(C)cc(C)c2s1 ?
MLL AF4-AF9 inh: 7.4; FGF22 binding: inactive; ALR inh: 17.6; rRNA inh HTS: -20.8*; Ecoli growth: 0.655; HNF4A DNA FP: 0.9; rRNA inh HTS OD600: -11.2*; rRNA inh HTS RFP: -0.2*

What do the screens show for `CCC(CC)c1nnc(NC(=O)c2ccc(N3CCCC3=O)cc2)s1`?
Vif A3G: 2.1%; ALR inh: 1.3; Ecoli growth: 0.66; HNF4A DNA FP: 2.1

Only part of the results is shown, so the mix of outcomes need not match the whole.
